WNV NS2B-NS3 inh = inhibitors of WNV NS2B-NS3 protease, primary screen, biochemical, fluorogenic substrate | Genome polyprotein (West Nile virus), P06935 | fluorogenic substrate Ex360/Em465; stronger effect = lower value | z-score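 (tested at a level between 10 and 100 µM)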 | 0.18% of 65,000 active | AID 577, 2007;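 active = z-score at -3 or under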;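 note: score is relative to mean and spread of the compound wells of a plate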
Target sequence (P06935 1371-1501 limits assumed): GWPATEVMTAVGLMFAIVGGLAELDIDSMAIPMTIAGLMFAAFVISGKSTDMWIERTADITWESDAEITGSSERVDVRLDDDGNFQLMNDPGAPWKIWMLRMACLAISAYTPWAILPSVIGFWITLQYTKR
Target sequence (P06935 1502-1679 limits assumed): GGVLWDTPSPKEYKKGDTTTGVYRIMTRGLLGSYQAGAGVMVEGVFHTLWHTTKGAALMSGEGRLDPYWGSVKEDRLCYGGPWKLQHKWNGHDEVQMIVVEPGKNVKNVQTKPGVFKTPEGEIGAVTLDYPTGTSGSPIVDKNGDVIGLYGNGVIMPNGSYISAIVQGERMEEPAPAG
Hsc70 ATP site = Hsc70 inhibitors, probe displacement, primary screen, biochemical, fluorescence polarization (AID 568). one-dose displacement, % at 20 µM; IC50 in µM for titrated hits. Heat shock cognate 71 kDa protein (Homo sapiens). 83,000 tested, under 10 active. Hsc70 fluorescence polarization, probe displacement; higher % means a stronger effect; strong numbers were not always called active;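 active = displacement above 50% without optical interference and an IC50 on retest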;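 note: ATPase domain with a fluorescein-tagged ATP probe; 0% = vehicle and 100% = excess ADP; read after one hour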
MT1-MMP reporter = inhibitors of MT1-MMP promoter transcription, cell-based, luciferase reporter, luminescence (AID 618); MT1-MMP promoter luciferase reporter cells, luminescence; calls from a first round at 10 µM; hits with a dose series show EC50 in µM; 0.62% of 87,000 active;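 active = over half of the reporter light lost at 10 µM or EC50 under 50 µM; inactive = the rest and hits that failed the dose series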;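 note: actives suppress MT1-MMP promoter-driven transcription so potencies describe inhibitors; HT1080 fibrosarcoma cells; overnight exposure; toxic or luciferase-blocking compounds were not removed from the actives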
* marks the source's active call; other numbers are inactive results; i = inactive; . = not tested or not shown; + = active, no number. Not a hit list, and some 0.8% of all compounds hit somewhere here.

entry | molecule | WNV NS2B-NS3 inh | Hsc70 ATP site | MT1-MMP reporter
1 | COc1cccc(Cn2c(-c3nonc3N)nc3ccccc32)c1 | -0.18 | -2.2% | i
2 | Cc1ccc(C)c(NC(=O)CSc2nnc(-c3ccccc3)n2N)c1 | -1.94 | -0.3% | i
3 | COc1ccc(C(=O)COC(=O)[C@H](C)Nc2ccc(C(F)(F)F)cc2[N+](=O)[O-])cc1 | . | -20.3% | i
4 | COc1ccccc1CNC(=O)c1ccoc1C | -0.08 | 4.7% | i
5 | N#Cc1nc(Cc2cccc3ccccc23)oc1N1CCN(c2ccccc2)CC1 | . | 6.4% | i
6 | CC1=C(C)CS(=O)N(S(=O)(=O)c2ccc(Cl)cc2)C1 (stereo not given) | 1.06 | -3.8% | i
7 | c1coc(-c2nnc3n2C2(CCCC2)Cc2ccccc2-3)c1 | -0.44 | -1.5% | i
8 | CCOC(=O)C1CCN(C(=O)CCCN2C(=O)c3ccccc3C2=O)CC1 | -0.25 | -1.3% | i
9 | COc1ccccc1Nc1nc(N)nc(CN2CCN(c3ccccc3)CC2)n1 | -0.53 | 0.2% | i
10 | Cc1cccn2c(=O)c3cc(C(=O)N4CCc5ccccc54)n(C)c3nc12 | -0.27 | 16.3% | i
11 | CCOC(=O)CSc1nc(C)c(C(=O)OCC)s1 | -0.54 | 2.8% | i
12 | CCC1C(C#N)=C(N)OC2=C1C(=O)CC(C)(C)C2 (stereo not given) | -0.87 | -4.1% | i
13 | CC(=O)Nc1ccc(C(=O)OCC(=O)NC(=O)NC2CCCCC2)cc1 | -0.41 | 1.0% | i
14 | COC(=O)C1CCN(c2nc3ccccc3nc2C(C#N)C(=O)NCCc2ccccc2)CC1 (stereo not given) | 0.91 | -86.3% | i
15 | CCCn1c(SCC(=O)Nc2ccccc2-c2ccccc2)nnc1-c1ccoc1C | 0.6 | 0.2% | i
16 | Fc1ccc(-c2cc(C(F)(F)F)nc(N3CCCCC3)n2)cc1 | -0.64 | -2.1% | i
17 | Cc1cccc(-c2cc3nc4c(c(N5CCC6(CC5)OCCO6)n3n2)CCCC4)c1 | -0.34 | 0.9% | i
18 | CCN(CC)CCCNC(=O)C1c2ccccc2C(=O)N1Cc1ccc(C)cc1 (stereo not given) | 1.32 | -2.1% | i
19 | O=C(NCc1ccco1)C(c1cccs1)N(C(=O)Cc1cccs1)c1ccccc1 (stereo not given) | 1.5 | 1.0% | i
20 | CCCC(=O)Nc1ccc(C(=O)Nc2nnc(COCC)s2)cc1 | . | -1.4% | i

The last four records of the part above are carried over, then new ones follow:
entry | molecule | WNV NS2B-NS3 inh | Hsc70 ATP site | MT1-MMP reporter
17 | Cc1cccc(-c2cc3nc4c(c(N5CCC6(CC5)OCCO6)n3n2)CCCC4)c1 | -0.34 | 0.9% | i
18 | CCN(CC)CCCNC(=O)C1c2ccccc2C(=O)N1Cc1ccc(C)cc1 (stereo not given) | 1.32 | -2.1% | i
19 | O=C(NCc1ccco1)C(c1cccs1)N(C(=O)Cc1cccs1)c1ccccc1 (stereo not given) | 1.5 | 1.0% | i
20 | CCCC(=O)Nc1ccc(C(=O)Nc2nnc(COCC)s2)cc1 | . | -1.4% | i
21 | Cc1ccnc(NS(=O)(=O)c2ccc(NC(=O)c3c(-c4ccccc4Cl)noc3C)cc2)n1 | . | 1.7% | i
22 | CC(C)c1nc(SCC(=O)Nc2ccc(N3CCOCC3)cc2)c2ccccc2n1 | . | 1.7% | i
23 | CC(=O)Nc1nc2ccccc2n1CCOc1ccccc1 | 1 | 0.1% | i
24 | Cc1cc(Cl)ccc1OCC(=O)NCc1ccncc1 | . | 3.5% | i
25 | N#CC(c1ccc(Cl)nn1)c1ccccc1Cl (stereo not given) | . | 1.8% | i
26 | COc1ccc(CSc2nc(N3CCOCC3)c3c(c2C#N)CC(C)(C)OC3)cc1 | -1.19 | -1.8% | i
27 | O=C(C(Cc1ccccc1)n1cccc1)N1CCN(c2ncccn2)CC1 (stereo not given) | 0.5 | 2.4% | i
28 | CCCC(=O)NCCCc1nc2ccccc2n1CCC | -0.35 | -0.7% | i
29 | Cc1ccc2oc(=O)c3cnn(CC(=O)N4CCCc5ccccc54)c3c2c1 | 0.57 | 1.5% | i
30 | S=c1[nH]nc(CSc2nc3ccccc3s2)o1 | -0.9 | 2.2% | i
31 | CCCCOc1ccc(Nc2nc(C)cc(C)c2C#N)cc1 | . | 6.0% | i
32 | O=C(NCCN1CCNCC1)c1ccccn1 | 0.35 | -4.1% | i
33 | COC(=O)c1ccc(C)c(NC(=O)CN(c2ccc3c(c2)OCO3)S(C)(=O)=O)c1 | 0.64 | 12.1% | i
34 | c1ccc2c(c1)nnn2Cc1nnc2sc(-c3ccncc3)nn12 | -0.07 | -0.1% | i
35 | CC1CCCCN1S(=O)(=O)c1ccc(NC(=O)CSc2nnnn2C)cc1 (stereo not given) | 0.77 | -2.1% | i
36 | CCCCNC(=O)CN(c1cccc(Br)c1)S(C)(=O)=O | . | -6.1% | i
37 | Cc1nc2ccccn2c1P(=O)(N1CCCCC1)N1CCCCC1 | 1.17 | 1.1% | i
38 | COc1ccc(OC)c(C2C(C(=O)O)c3ccccc3C(=O)N2C)c1 (stereo not given) | 0.48 | 0.0% | i
39 | Cc1cc(C)c(NC(=O)C2CCCN2C)c(C)c1 (stereo not given) | . | -3.1% | i
40 | CC1=C(C(=O)OC2CCCCC2)C(c2ccco2)C2=C(CC(C)(C)CC2=O)N1 (stereo not given) | 1.49 | -2.2% | i

Grouped by structure: the compounds so far containing fluorine (two)
entry | molecule | WNV NS2B-NS3 inh | Hsc70 ATP site | MT1-MMP reporter
3 | COc1ccc(C(=O)COC(=O)[C@H](C)Nc2ccc(C(F)(F)F)cc2[N+](=O)[O-])cc1 | . | -20.3% | i
16 | Fc1ccc(-c2cc(C(F)(F)F)nc(N3CCCCC3)n2)cc1 | -0.64 | -2.1% | i

Going on with the list:
entry | molecule | WNV NS2B-NS3 inh | Hsc70 ATP site | MT1-MMP reporter
41 | C=C(C)COc1ccc(-c2[nH]ncc2Oc2ccccc2OC)c(O)c1 | 0.3 | 1.5% | i
42 | CCCCn1c(=O)n(Cc2cccc(F)c2)c(=O)c2c1ncn2Cc1ccco1 | 0.18 | -2.6% | i
43 | O=C(Nc1cnn(Cc2ccc(Cl)c(Cl)c2)c1)c1nc2ncccn2n1 | -1.52 | -2.7% | i
44 | CCCCn1c(SCC(=O)N2CCCCC2)nc2cc(S(N)(=O)=O)ccc21 | -0.78 | 5.8% | i
45 | C=CCOc1c(CNc2ncn[nH]2)cccc1OCC | . | -0.6% | i
46 | Cc1nc2sc(C(c3ccc(Cl)cc3)N3CC(C)OC(C)C3)c(O)n2n1 (stereo not given) | -0.14 | -1.1% | i
47 | N#Cc1c(/N=C/c2ccco2)oc(-c2ccccc2)c1-c1ccccc1 | -1.08 | 6.2% | i
48 | O=C(O)C1C2C=CC(C2)C1C(=O)Nc1ccc(C(=O)N2CCCCC2)cc1 (stereo not given) | -1.15 | 1.8% | i
49 | Cc1ccc2c(c1)CCCN2C(=O)c1c(C)noc1C | -0.2 | 1.7% | i
50 | c1ccc2c(c1)oc1c(NCCN3CCOCC3)ncnc12 | -0.64 | 3.5% | i
51 | Cc1ccc2cc(CN(CCCN(C)C)C(=O)NCc3ccccc3)c(=O)[nH]c2c1C | -0.42 | 2.0% | i
52 | COc1ccc(S(=O)(=O)N2CC(O)CC2C(=O)OCC(=O)Nc2ccc(Cl)cn2)cc1 (stereo not given) | -1.16 | -2.8% | i
53 | C#CCSc1nc(-c2cccs2)ccc1C#N | 1.6 | 0.2% | i
54 | COc1cc(C2C(C#N)=C(C)NC3=C2C(=O)CC(C)(C)C3)cc(OC)c1O (stereo not given) | -0.5 | -0.9% | i
55 | Cc1cc(C(=O)N2CCN(c3ccccc3)CC2)no1 | 0.98 | 0.1% | i
56 | COc1ccc(C(=O)N(CCCO)C(C)C(=O)NC2CCCCC2)cc1OC (stereo not given) | -0.54 | -4.7% | i
57 | Cc1ccc(Cn2cccc(NC(=O)NC3CCCCC3)c2=O)cc1 | . | 5.1% | i
58 | CCC(C)(C)n1nnnc1C(c1ccc(C)cc1)N1CCCC1 (stereo not given) | -0.56 | -8.4% | i
59 | O=C(Nc1ccc2c(c1)OCCO2)NC1CCCCC1 | -0.31 | -0.8% | i
60 | CC(=O)Nc1cccc(N2C(=O)CC(Cc3ccccc3)C2=O)c1 (stereo not given) | 0.5 | -4.5% | i
61 | CN1CC(=O)N(CCOc2ccccc2)C1=O | -0.92 | 3.8% | i
62 | CCOc1ccccc1-c1nc(C(N)=O)c2[nH]c(=O)n(-c3ccccc3)c2n1 | -0.2 | -4.7% | i
63 | CCc1nnc(NC(=O)c2ccc(S(=O)(=O)N3CCCCCC3)cc2)s1 | 1.21 | -5.8% | i
64 | CC(C)Cc1ccc(/C(=N/O)C(=O)O)s1 | -0.37 | -1.1% | i
65 | COCCNC(=O)C(OC(=O)c1ccco1)c1ccccc1OC (stereo not given) | -0.65 | -0.5% | i
66 | CC1Cc2ccccc2N1C(=O)Cn1c(=O)cc(O)c2ccccc21 (stereo not given) | . | -1.2% | i
67 | COc1ccccc1OCCOCCn1cnc2ccccc2c1=O | -1.05 | 8.0% | i
68 | C=CCNC(=O)CSc1nc2sc(C)c(C)c2c(=O)[nH]1 | -0.53 | 1.6% | i
69 | COc1ccc(C2C(C(=O)O)CCC(=O)N2c2ccc(OC)cc2)cc1 (stereo not given) | . | 1.5% | i
70 | COC(=O)c1ccc(C2C(C#N)=C(C)NC3=C2C(=O)CC(C)(C)C3)cc1 (stereo not given) | 1.54 | 1.6% | i
71 | Cc1c(C(=O)Nn2cnnc2)oc2ccccc12 | 0.15 | -3.0% | i
72 | CC(=O)Nc1ccc(S(=O)(=O)Nc2c(C)nn(-c3ccccc3)c2C)cc1 | . | 1.3% | i
73 | Cc1ccc(Cl)cc1NC(=O)C1CCCN(S(=O)(=O)c2c(C)noc2C)C1 (stereo not given) | 1.39 | 4.0% | i
74 | COc1ccc2c(=O)c(C(=O)NCCc3ccc(OC)c(OC)c3)c[nH]c2c1 | -1.2 | -1.1% | i
75 | COCCn1c(SCC(=O)c2ccc3c(c2)OCCO3)nnc1C(C)C | -0.27 | 2.9% | i
76 | COc1cccc(-n2cc(C(=O)O)c3ccccc3c2=O)c1 | -0.43 | -5.9% | i
77 | O=C1C2ON(c3ccccc3)C(c3ccncc3)C2C(=O)N1c1ccccc1 (stereo not given) | -0.34 | -2.0% | i
78 | CCc1nc2ccccc2c(C(=O)OCC(=O)NCc2ccco2)c1C | 0.08 | -6.4% | i
79 | CC(=O)Nc1ccc(-c2ccccc2)s1 | 0.72 | -1.2% | i
80 | CC(=O)Nc1cc(C(N)=O)c(Cl)cc1Cl | 2.43 | 125.1% | i
81 | Cc1cc(C)cc(C(=O)N2CCC(C(N)=O)CC2)c1 | -0.68 | 4.0% | i
82 | c1ccc(-c2cc(-c3nc(-c4cccnc4)no3)c3ccccc3n2)cc1 | 1.51 | -2.6% | i
83 | COc1cccc(C(=O)c2cc3ccc(O)cc3oc2=O)c1 | 2.14 | 2.4% | i
84 | N#Cc1cnn(Cc2ccccc2)c1/N=C/N1CCOCC1 | -0.21 | -0.7% | i
85 | COc1ccc(NC(=O)/C(Cl)=C(/Cl)S(=O)Cc2ccccc2)cn1 (stereo not given) | . | 5.4% | +
86 | C=CCn1c(SCC(=O)N2CC(=O)Nc3ccccc32)nc2scc(-c3cccs3)c2c1=O | -1.17 | -3.4% | i
87 | CCOC(=O)C1=C(C)Nc2ncnn2C1c1cccnc1 (stereo not given) | . | 1.3% | i
88 | Cc1cc(-c2nc3c4c5c(sc4[nH]c(=O)n3n2)CCC5)c(C)o1 | -1.01 | -7.7% | i
89 | O=c1[nH]c2ccccc2nc1NCCN1CCOCC1 | -0.36 | -1.1% | i
90 | O=C(Nc1ccc(C2CCCCC2)cc1)C1CCN(c2ncccn2)CC1 | 0.78 | 1.9% | i

(cont.)
entry | molecule | WNV NS2B-NS3 inh | Hsc70 ATP site | MT1-MMP reporter
91 | CCCCNCCCOc1cc(Cl)ccc1Cl | . | 5.1% | i
92 | OCCN1CCN(CC(O)COc2ccc(-c3ccccc3)cc2)CC1 (stereo not given) | . | -1.3% | i
93 | Cc1cccc(-c2nc(C#N)c(NC3CCCCC3)o2)c1 | 0.22 | 2.3% | i
94 | O=C(C1CC1)N1CCc2cc(Br)cc(S(=O)(=O)NCc3ccccn3)c21 | -0.55 | 2.9% | i
95 | COc1ccc(C)cc1-n1nnnc1SCc1csc(C)n1 | 0.55 | -1.4% | i
96 | CN(Cc1cnn(C)c1)C(=O)c1sc2cccc(Cl)c2c1Cl | . | -3.1% | i
97 | Cc1ccc(C)c(OCCCCn2ccnc2)c1 | . | -0.8% | i
98 | C=CCn1c(SC(C)CC)nc(O)cc1=O (stereo not given) | . | -3.1% | i
99 | O=C(Nc1ccc2c(c1)OCCO2)C1CCCN(S(=O)(=O)c2cnc[nH]2)C1 (stereo not given) | -0.6 | 5.4% | i
100 | Cc1nnc(N2CCN(c3ccccc3)CC2)[nH]c1=O | -0.29 | 13.3% | i
101 | CCN(CC)S(=O)(=O)c1ccc(-c2nnc(SCc3nnc(-c4ccc(C)cc4)o3)o2)cc1 | -1.83 | 4.6% | i
102 | CCOC(=O)C1=C(C)NC(=O)NC1c1cccc(OC)c1OCc1ccccc1Cl (stereo not given) | . | -0.4% | i
103 | Cc1cc(NC(=O)CSc2nc(C(C)C)nc3sc4c(c23)CCC(C)C4)no1 (stereo not given) | . | -1.2% | i
